B2AR ag = agonists of human beta-2 adrenergic receptor inducing internalization; Am2.2-beta2AR cells, FAP receptor internalization, flow cytometry; reference of the scale not given here; P07550; 0.43% of 340,000 active; response, % (concentration not given with the values); AID 504454;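 active = response above a set limit, near 3 SD of response in nonfluorescent compounds, cut at about 42% in these data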;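 also: stock transfer was 100 nL into about 11 µL; a reference agonist was the positive control; negative values mostly stem from fluorescent compounds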
E coli growth = blocks Escherichia coli growth | OD600, 23 h; active compounds read low | OD600 absorbance (concentration not given with the values) | 0.21% of 330,000 active | AID 1053175;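 active = OD600 absorbance below the run mean of sample wells minus 3.6 SD, in any replicate, cut at about 0.56 in these data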;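 also: stock transfer was 300 nL into about 60 µL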
LANA-H2B inh = blocks KSHV LANA binding to histone H2A/H2B; Q9QR71; inhibition, % (test concentration not listed); cell-free LANA-H2A/H2B peptide, fluorescence polarization; AID 2629; 0.6% of 320,000 active; in the data active = inhibition mostly above about 10%, no sharp cut-off; inactive = mostly below about 6.7%;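 also: stock transfer was 7.5 nL into about 10 µL; 0% = median of vehicle wells and 100% = median of positive control wells; one replicate is shown; the record names a cut of 25% in any replicate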
UCH37 inh = inhibitors of human deubiquitinating enzyme UCH37 | Q9Y5K5 | purified proteasome/UCH37, Ub-AMC cleavage fluorescence | inhibition, % (concentration not given with the values) | 0.33% of 330,000 active;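 active = mean of two replicates above 20%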;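 also: 0% = compound-free wells with enzyme and 100% = wells lacking proteasome; stock transfer was 100 nL into about 20 µL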
Target sequence (Q9Y5K5 whole entry, looked up): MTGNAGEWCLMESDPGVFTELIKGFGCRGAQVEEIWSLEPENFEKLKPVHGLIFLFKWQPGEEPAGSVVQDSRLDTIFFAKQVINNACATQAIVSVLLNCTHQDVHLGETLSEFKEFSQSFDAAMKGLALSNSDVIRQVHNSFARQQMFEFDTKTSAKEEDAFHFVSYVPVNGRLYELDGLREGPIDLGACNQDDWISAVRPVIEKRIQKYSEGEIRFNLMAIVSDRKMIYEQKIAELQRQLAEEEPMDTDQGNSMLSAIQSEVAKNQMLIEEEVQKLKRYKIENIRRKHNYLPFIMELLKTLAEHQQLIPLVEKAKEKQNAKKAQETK
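system = Proteasome-associated human UCH37 deubiquitinase | amount = 0.15 nM proteasome as dispensed | medium = pH 7.4 Tris-HCl (50 mM) with ovalbumin, ATP-MgCl2, DTT | incubation = 30 min preincubation with enzyme, 25 min cleavage at room temperature | detection = AMC fluorescence 355/460 nm | read-out basis = percent inhibition | controls = no-proteasome and no-compound wells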
Vif A3G = HIV-1 Vif–A3G interaction blockers – biochemical, TR-FRET, GST-Vif 1-94, biotin-A3G peptide, dose response retest, primary screen (AID 1117319); one-dose inhibition, %; IC50 in µM for titrated hits; 0.57% of 260,000 active; TR-FRET GST-Vif / biotin-A3G peptide binding; higher % means a stronger effect; test concentration not given here; strong numbers were not always called active;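 active = above the screen mean plus three standard deviations and confirmed in dose response; inconclusive = results disagree or hit not tested in dose response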;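 also: Vif residues 1-94 fused to GST binding biotinylated APOBEC3G peptide 110-148; 0% = full assay without inhibitor and 100% = GST in place of GST-Vif; retest series ran down from 100 µM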
Bfl-1 A1 inh = inhibitors of the anti-apoptotic protein A1, read as caspase activation; MEF A1-2A-BIM cells, Caspase-Glo 3/7 luminescence, 3 h; percent of clofoctol response, vehicle zero; caspase activation, % (test concentration not listed); 0.066% of 330,000 active;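 active = over half of replicate activation scores above 10%, or exactly half above 10 with the replicate mean above 10; inconclusive = replicate mean below 10 yet half the replicates above 10; inactive = over half of replicates below 10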;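 also: wells of about 30 µL received 50 nL stock; many hits fall short of the cut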
HNF4A DNA FP = change in binding of human HNF4 alpha to DNA | P41235 | HNF4a-FITC DNA binding, fluorescence polarization, 1 h | activity change, % at 10 µM | 0.3% of 360,000 active | AID 1224865; in the data active = activity change above about 30%, passing the limit was not always enough;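 also: controls were the assay level and a saturating level of protein; the project sought stronger binding though the title names inhibitors; some compounds called inactive have numbers as strong as hits; positive values seem to mean higher polarization but the record does not say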
Target sequence (P41235 whole entry, looked up): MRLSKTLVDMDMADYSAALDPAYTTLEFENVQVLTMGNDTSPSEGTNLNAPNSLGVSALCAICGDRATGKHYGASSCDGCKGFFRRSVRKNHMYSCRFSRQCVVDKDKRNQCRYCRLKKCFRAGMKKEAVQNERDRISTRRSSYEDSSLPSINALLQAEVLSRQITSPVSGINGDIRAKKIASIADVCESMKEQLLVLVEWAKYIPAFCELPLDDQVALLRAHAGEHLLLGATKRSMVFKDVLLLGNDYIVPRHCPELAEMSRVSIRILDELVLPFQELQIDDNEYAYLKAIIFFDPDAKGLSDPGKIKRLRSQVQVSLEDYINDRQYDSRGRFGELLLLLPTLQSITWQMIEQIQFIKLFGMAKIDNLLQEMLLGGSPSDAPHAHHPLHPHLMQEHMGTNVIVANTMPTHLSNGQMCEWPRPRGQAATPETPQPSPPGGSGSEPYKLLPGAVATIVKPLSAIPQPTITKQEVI
An asterisk follows results filed as active; ? = inconclusive; · = not tested or not shown; & = joins results of further samples.

SMILES	B2AR ag	E coli growth	LANA-H2B inh	UCH37 inh	Vif A3G	Bfl-1 A1 inh	HNF4A DNA FP
O=C(C1CCCN1S(=O)(=O)c1cccc2cccnc12)N1CCc2ccccc2C1 (stereo not drawn)	-13	0.69	1.6	4.9	8%	0.4	-1.2
Cc1ccc(-n2nc3c(=O)n(C(C)C(=O)NCc4ccccc4Cl)nc(C)c3c2C)cc1 (stereo not drawn)	3	·	6.0	·	·	4.6	-1.7
COc1cccc(NC(=O)Cn2cc3c(n2)CCCCC3)c1	-4	0.73	-3.0	5.4	-3%	0.0	-0.1
O=S(=O)(/N=C(/Nc1ccccn1)c1ccccc1)c1ccc(Cl)cc1	-4	·	-1.2	·	-1%	-0.4	-6.0
COc1ccc(CNC(=O)NC(C)(C)c2cccc(C(C)(C)NC(=O)NCc3ccc(OC)cc3)c2)cc1	6	0.72	1.1	2.8	·	-0.6	-2.7
CC(=O)c1ccc(NC(=O)N2CCN(c3cccc(Cl)c3)CC2)cc1	3	0.69	0.5	3.2	0%	0.3	5.3
c1ccc(-n2c(SCc3nc(-c4cccs4)no3)nnc2-c2ccco2)cc1	3	0.65	2.1	-2.3	13%	-1.1	-0.3
CCCCNS(=O)(=O)c1ccc2c(c1)oc(=O)n2CC(=O)OCC	3	0.74	-3.3	6.0	1%	-0.1	0.7
C[C@@H]1CN=C2N(CCNC(=O)CCC3CCCCC3)[C@H](Cc3ccc(O)cc3)CN21	-18	·	-0.1	1.6	5%	-0.4	0.6
CCC(C)NC(=O)C1CCN(S(=O)(=O)c2cccs2)CC1 (stereo not drawn)	2	0.73	3.2	3.1	0%	0.0	-0.8
CC(=O)N1CCc2cc(C(=O)CN3CCCN(Cc4ccc(F)cc4)C3)ccc21	·	·	9.8	·	9%	0.5	·
O=C(Cn1cnc2scc(-c3cccc([N+](=O)[O-])c3)c2c1=O)NCc1ccco1	26	0.71	3.5	2.1	-4%	0.8	-28
CC(CCc1ccccc1)NC(=O)CN(C)Cc1ccccc1F (stereo not drawn)	3	0.67	1.7	1.4	·	-0.6	2.6
CC(C)CNC(=O)NC(=O)COC(=O)c1cc(F)cc(F)c1	-3	0.71	0.5	2.6	-4%	0.7	0.8
Cc1ccc(C)c(S(=O)(=O)Nc2ccc(O)c(Sc3ncn[nH]3)c2)c1	4	0.71	2.7	1.2	9%	1.1	1.5
COc1ccc(C2(O)CCN(CC(=O)Nc3nc(-c4ccccc4)cs3)CC2)cc1	18	0.63	0.0	-3.0	-1%	-0.2	4.3
COc1ccc(CNC(=O)CN(Cc2ccco2)C(=O)CCC(=O)Nc2ccccn2)cc1	-8	0.7	0.7	5.2	·	-0.1	2.3
Nc1ncc(Br)cc1S(=O)(=O)NCCC(=O)NC1CCCCC1	-9	0.71	2.3	2.4	8%	-0.5	11
NC1=NC(=O)/C(=C\c2cccs2)S1	5	0.71	-2.1	13	16%	-0.9	-2.0
COC1=C(NCc2ccc3c(c2)OCO3)C(=O)C(OC)=C(NCc2ccc3c(c2)OCO3)C1=O	-8	·	·	·	-5%	·	1.7
CC1=Nc2cc(C(=O)N3CCCC3)ccc2Sc2c(C)ccc(C)c21	3	0.71	-1.1	4.5	6%	-1.7	2.0
COc1ccc(NC(=S)N(CCN2CCOCC2)Cc2ccccc2F)cc1	-2	0.72	1.9	0.4	0%	2.2	-5.7
O=C(COc1ccc(-c2nnco2)cc1)NCc1ccccc1Cl	-8	0.64	-0.3	-1.1	·	1.3	-0.2
COc1ccc(NC(=S)Nc2ccc3cn[nH]c3c2)cc1	-1	0.71	-0.4	1.2	15%	0.1	1.0
COc1ccc(Cc2nc3ccc(C(=O)N(C)CCO)cc3o2)cc1	-11	0.69	-5.1	2.7	·	-1.3	-1.7
Other compounds.
SMILES	B2AR ag	E coli growth	LANA-H2B inh	UCH37 inh	Vif A3G	Bfl-1 A1 inh	HNF4A DNA FP
O=[N+]([O-])c1cccc(-c2noc(-c3cccs3)n2)c1	-6	0.64	-4.8	3.7	-5%	-5.9	-2.9
CC(=O)Nc1ccc(NC(=O)c2cccc(Oc3ccccc3)c2)cc1	-8	0.62	2.4	2.7	-9%	0.5	-2.2
CCN(CC)S(=O)(=O)c1ccc(C(=O)N2CCN(c3ncccn3)CC2)cc1	-1	0.69	-0.6	-2.5	·	0.8	-0.1
O=C(OCc1cc(Cl)ccc1OC(F)F)c1cncc(Br)c1	-3	0.67	2.3	3.5	-15%	0.8	3.9
CC(C(=O)N1CCc2ccccc21)N1CCN(S(=O)(=O)c2ccc(C(F)(F)F)cc2)CC1 (stereo not drawn)	-5	0.65	6.2	0.8	-8%	1.7	5.3
O=C(CCN1C(=O)/C(=C/c2ccccc2)SC1=S)NCCc1ccc(O)cc1	-2	0.68	1.9	1.8	·	0.5	1.6
COc1cccc(CNS(=O)(=O)c2ccc(S(=O)(=O)NC3CC3)cc2)c1	-1	0.71	-3.4	2.9	·	0.2	1.7
CC(C)(C)OC(=O)C[C@H]1C/C=C\C[C@@H](CC(=O)N(CCO)Cc2ccccc2)C(=O)N[C@H](Cc2ccccc2)COC1=O	-16	·	4.3	-0.4	·	1.1	1.2
CCCCn1c(O)c(/C=C2\C=NN=C2c2ccccc2)sc1=S	11	0.72	-0.8	4.7	?	-1.6	0.1
Nc1ccc2nc3c(c(Cl)c2c1)CCCC3	-6	0.62	-2.0	-80	20%	0.4	-3.3
CCOc1cc(N2CCOCC2)c(OCC)cc1NC(=O)Cn1[nH]c(=O)c2ccccc2c1=O	-4	0.72	0.1	-0.2	13%&2%	-0.3	-0.6
COC(=O)[C@@]12CCCCN1[C@H](c1ccc(-c3ccc(OC)cc3)cc1)[C@@H]1C(=O)N(C)C(=O)[C@@H]12	20	·	0.2	0.6	·	0.7	-1.4
C[C@H](NC(=O)c1[nH]cnc1C(=O)Nc1cccc(Cl)c1)c1ccccc1	-3	·	6.4	-8.5	·	-0.5	-4.0
O=C(/C=C/c1ccc(F)cc1)NCCC1=CCCCC1	-5	0.65	1.5	4.8	1%	1.2	-0.1
CC1(C(=O)NC(=S)NNC(=O)c2ccncc2)CCCCC1	1	0.68	3.9	9.7	18%	-0.6	3.2
CCCCn1c(SCn2nnc3ccccc3c2=O)nc2cc(S(N)(=O)=O)ccc21	-11	0.67	5.3	2.2	23%	0.6	4.2
CCOc1ccc(S(=O)(=O)c2c(C(=O)c3ccccc3)cnc3cc4c(cc23)OCCO4)cc1	0	0.69	-4.6	-45	·	0.0	-0.6
CCC1(O)C(=O)OCc2c1cc1n(c2=O)Cc2cc3c(N)cccc3nc2-1 (stereo not drawn)	-23	·	·	·	-5%	·	-5.6
CN(C)c1ccc(Nc2c3c4c(cccc4n(C)c2=O)C(=O)c2ccccc2-3)cc1	1	0.74	1.6	3.3	·	-0.1	-45
COc1ccc(C(=O)N2CCCC(c3nc(-c4cc(OC)c(OC)c(OC)c4)no3)C2)cc1 (stereo not drawn)	0	0.69	0.0	5.7	-10%&-4%	1.1	5.0
Cc1n[nH]c(C)c1Sc1ccccc1N=Cc1cc([N+](=O)[O-])ccc1O	·	·	-1.8	·	-11%	-0.2	·
COC(=O)c1sc(-c2ccc(C(C)(C)C)cc2)cc1NC(=O)CSCC(=O)O	4	·	-2.3	·	-20%	0.3	1.4
CCCCN1C[C@H](Cc2ccccc2)[C@@H](CC(=O)Nc2ccccc2)C1=O	0	·	-1.0	-1.8	·	0.4	-2.4
O=C(CSc1nnnn1C1CCCCC1)Nc1ccc(F)cc1	-7	0.68	-8.9	0.9	-13%	1.7	-1.5
O=C(O)COc1ccc(/C=C/c2nc(-c3ccccc3O)n[nH]2)cc1	0	0.68	-7.7	2.2	·	-6.1	-1.2
Next part.
SMILES	B2AR ag	E coli growth	LANA-H2B inh	UCH37 inh	Vif A3G	Bfl-1 A1 inh	HNF4A DNA FP
COc1ccccc1C(=O)NNC(=O)c1ccccc1[N+](=O)[O-]	9	0.69	-8.6	0.3	·	-0.8	0.2
Cc1ccccc1CNC(=O)CCn1nc(C)c2c(C)n(-c3ccccc3)nc2c1=O	5	0.7	0.0	-1.2	·	1.2	5.0
Cc1nccn1CCOc1ccccc1Cl	-2	0.65	1.8	3.7	·	-0.1	-3.8
O=C(NC1(C(F)(F)F)NC(=O)N(C2CCCCC2)C1=O)C1CC1 (stereo not drawn)	-2	0.71	3.1	1.8	-2%	-0.6	-0.3
O=C(CSc1nc(O)c(Cc2ccccc2)c(=O)[nH]1)N1CCOCC1	4	0.7	1.0	3.0	·	0.6	0.8
O=C(O)c1[nH]c2ccc(Cl)cc2c1CC(=O)N1CCN(c2ccccc2)CC1	7	0.64	0.2	0.5	17%	0.0	-0.5
CC1(c2nnc(-c3cccc(Cl)c3)o2)CC(c2ccc(Br)cc2)=NO1 (stereo not drawn)	-4	0.72	-1.8	0.0	·	0.8	-2.3
COc1ccc(S(=O)(=O)Nc2ccc(-n3cccc3)cc2)cc1	4	0.71	-3.0	2.7	-2%	-0.3	0.7
COc1ccc(C2(O)CCN(C(=O)c3ccc4c(c3)OCO4)CC2)cc1	-3	0.69	3.3	-0.5	9%	-0.4	-0.7
Cc1ccc(-c2nn(-c3ccccc3)cc2/C=N/O)cc1	-12	·	-2.6	·	-2%	0.4	-2.7
CCn1c2ccccc2c2cc(NC(=O)c3coc(=O)c(Br)c3)ccc21	·	·	20*	·	?	0.4	-46
CCn1c(=N)n(CCOc2ccc(OC)cc2)c2ccccc21	-1	0.69	-1.5	-0.5	1%	-0.6	2.4
Nn1c(SCC(=O)NC2CCCCC2)nnc1-c1ccco1	-10	0.68	3.6	-0.7	7%	1.1	1.5
COC(=O)CCN(C(=O)C12CC3CC(CC(C3)C1)C2)c1ccccn1	3	0.71	-1.6	-0.6	18%	0.1	2.5
CC1=CCC2C(=O)N(c3ccc4ccccc4n3)C(=O)C2C1 (stereo not drawn)	1	0.71	6.6	0.1	3%	0.8	-2.4
Clc1ccc(C(c2ccccc2)N2CCN(c3ccccn3)CC2)cc1 (stereo not drawn)	11	0.7	5.2	0.3	10%	0.6	3.9
O=C(c1ccc(C(=O)N2CCCc3ccccc32)nc1)N1CCCc2ccccc21	3	0.7	4.1	-0.7	·	1.3	3.5
Cc1ccc2sc(NC(=O)c3cccc(N4C(=O)CCC4=O)c3)nc2c1C	8	0.69	3.9	-35	·	0.6	3.0
CN(CC(=O)Nc1ccc(F)cc1)CC(=O)NC1CCCCC1	0	0.69	0.0	-2.7	·	-0.4	-0.5
O=C(Cc1ccc(NC(=O)C2CCCN(C(=O)CCc3ccccc3)C2)cc1)Nc1ccc(C(=O)N2CCOCC2)cc1 (stereo not drawn)	-8	·	·	·	-3%	·	0.6
COc1c(Cl)cc(Cl)cc1C(=O)Nc1ccc(C(=O)O)cc1	15	0.71	0.2	2.6	?	0.2	-0.6
Cc1ccc(C)c(C(=O)N2CCC(n3nccc3NC(=O)C3CC3)CC2)c1	0	0.73	0.2	1.5	·	0.9	-2.5
COc1ccc(C(CC(=O)N2CCCC(C)C2)c2c(OC)cc(OC)c3c(-c4ccccc4)cc(=O)oc23)cc1 (stereo not drawn)	-2	0.63	-0.9	-7.2	·	0.4	-18
COc1cc2c(cc1OC)C(c1ccccc1)=NCC2	6	0.64	-9.7	2.5	28%	0.4	1.8
COc1ccccc1CC(=O)c1ccc(OCc2ccccc2)cc1	-6	0.66	-0.4	-1.6	·	-1.4	-1.0
Oc1ccc(Nc2nc(NCC3CCCO3)c3ccccc3n2)cc1 (stereo not drawn)	10	0.66	·	3.4	1%	·	-0.7

Compound activity from PubChem.
